eIF4H FP inh – human eIF4H binding inhibitors, primary screen, translation initiation inhibitor project, biochemical, uHTS, fluorescence polarization; eIF4H fluorescence polarization binding assay; inhibition, % at 35 µM; 290,000 compounds, 0.94% hits; AID 2012, 2009;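 active means 50% or more with normal probe brightness, or confirmed in later tests; inconclusive means above 50% with abnormal brightness, or retests that disagree; inactive means below 50% or failed in later tests; about a fifth of its hits are not listed in these tables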;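 further: calls also rest on retests at 20 µM and on dose response follow-up; 0% = protein and probe with vehicle and 100% = probe without protein; strong numbers were not always called active; many hits fall short of the cut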
Rce1 inhib – yeast Rce1p protease inhibitors, primary screen, biochemical, fluorescence, cell-free homogeneous. yeast membranes, quenched prenylated peptide cleavage fluorescence. 290,000 compounds, 0.27% hits. calls only. CAAX prenyl protease 2 (Saccharomyces cerevisiae (strain ATCC 204508 / S288c)), Q03530;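 active means fall in fluorescence gain of 50% or more versus controls, with final raw signal at or below 3038400; inconclusive means same 50% fall but final raw signal above 3038400; inactive means fall in fluorescence gain under 50%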;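 further: plate controls were neutral control wells for no effect and wells lacking membranes for full effect; tested at 10 µM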
Target sequence (Q03530 whole entry, looked up): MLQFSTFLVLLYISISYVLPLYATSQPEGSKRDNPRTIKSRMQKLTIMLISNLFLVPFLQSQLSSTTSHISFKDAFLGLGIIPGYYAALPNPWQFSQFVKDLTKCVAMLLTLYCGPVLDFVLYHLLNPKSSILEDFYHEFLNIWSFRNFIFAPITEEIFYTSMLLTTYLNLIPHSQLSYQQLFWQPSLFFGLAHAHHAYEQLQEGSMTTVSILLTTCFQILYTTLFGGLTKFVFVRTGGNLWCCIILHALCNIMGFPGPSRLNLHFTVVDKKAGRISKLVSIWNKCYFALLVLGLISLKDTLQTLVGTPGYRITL
Env fusion inh – inhibitors of HIV-1 Env-driven cell-cell fusion, primary screen, HeLa-JRFL effector, CEM21 target cells, luciferase | inhibition, % at 12.3 µM | 360,000 compounds, 1.1% hits;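 active means mean replicate inhibition score of at least 50 and every replicate individually at or above 50; inconclusive means only one of the two criteria met; inactive means mean below 50 and not all replicates reaching 50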;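 further: 0% = plate neutral controls and 100% = maraviroc near 300 nM; one replicate is shown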
CSC inhib – cancer stem cell viability inhibitors, primary screen, luminescence | 300,000 compounds, 1.1% hits | cancer stem cell-like cells viability | inhibition, % at 7.5 µM;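 active means mean at 75% or more and at least half the replicates too; inconclusive means mean and replicates disagree; tested in HMLE shEcad cells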;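 further: 0% = median of negative and 100% = median of positive control wells; the first replicate is given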
UUG fidelity – modulators of yeast start codon fidelity, primary screen, whole organism, S. cerevisiae, single point, plate reader; AID 602363, 2012; S. cerevisiae UUG-firefly luciferase reporter, luminescence/redox ratio; 350,000 compounds, 0.13% hits; activity score, % at 18.7 µM;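 active means replicate mean at a twofold rise or more, about +100% in these data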;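 further: firefly luciferase made from a UUG start codon reports start codon fidelity; reporter light over untreated wells divided by growth signal over untreated wells; some hits fall short of that in this replicate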
PABP polyA inh – PABP poly(A) RNA binding inhibitors, primary screen, biochemical, fluorescence polarization, uHTS. 290,000 compounds, 1% hits. Polyadenylate-binding protein 1 (Homo sapiens), P11940. inhibition, % at 35 µM;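 active means 50% or more with normal probe brightness, or confirmed in later tests; inconclusive means above 50% with abnormal brightness, or retests that disagree; inactive means below 50% or failed in later tests; about a fifth of its hits are not listed in these tables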;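 further: calls also rest on retests at 20 µM and on dose response follow-up; controls were probe without protein and protein plus probe with vehicle; some compounds called inactive have numbers as strong as hits; many hits fall short of the cut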
Target sequence (P11940 whole entry, looked up): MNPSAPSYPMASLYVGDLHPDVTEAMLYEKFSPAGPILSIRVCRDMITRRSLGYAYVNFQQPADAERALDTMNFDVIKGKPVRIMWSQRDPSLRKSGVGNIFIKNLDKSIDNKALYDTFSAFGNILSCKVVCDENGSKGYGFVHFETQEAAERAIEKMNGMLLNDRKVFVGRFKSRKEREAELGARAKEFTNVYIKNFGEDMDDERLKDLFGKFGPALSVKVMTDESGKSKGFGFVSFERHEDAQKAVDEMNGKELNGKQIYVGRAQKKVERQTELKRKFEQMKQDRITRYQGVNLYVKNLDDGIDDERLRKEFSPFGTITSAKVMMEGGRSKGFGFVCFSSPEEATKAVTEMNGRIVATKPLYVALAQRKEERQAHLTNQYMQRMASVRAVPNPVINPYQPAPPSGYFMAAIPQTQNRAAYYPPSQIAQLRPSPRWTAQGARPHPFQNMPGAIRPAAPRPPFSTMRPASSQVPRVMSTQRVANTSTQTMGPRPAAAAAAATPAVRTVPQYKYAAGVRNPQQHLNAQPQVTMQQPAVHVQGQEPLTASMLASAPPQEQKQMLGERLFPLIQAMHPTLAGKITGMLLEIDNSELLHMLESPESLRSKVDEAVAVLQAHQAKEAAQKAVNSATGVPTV
MT1-MMP act inh – blockers of MT1-MMP proenzyme processing, primary screen, HT1080 RFP-PRO-GFP cells, GFP/RFP fluorescence; GFP/RFP ratio fluorescence, overnight; percent of plate control window, DMSO zero; 360,000 compounds, 0.061% hits; AID 651647, 2012; GFP/RFP ratio change, % at 20 µM; Matrix metalloproteinase-14 (Homo sapiens), P50281;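 active means GFP/RFP ratio change of at least 30% with cell ATP level not reduced by more than half and red fluorescence within 50% of control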; further: strong numbers were not always called active
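Assay system: HT1080 cells carrying an RFP-PRO-GFP reporter | Dosing: Single dose of 20 µM compound, 1% DMSO final | Incubation: Cells overnight before dosing, compound overnight, 37 °C, 5% CO2 | Evaluation: GFP/RFP fluorescence ratio | Control set: DMSO and RFP-L50D-GFP cell wells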
MT1-MMP act inh RFP – further read-out of MT1-MMP act inh, marked with its call; RFP signal change, %; measured here: RFP expression control read;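 0 = vehicle wells; hits needed this value within 50% of zero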
Active calls of the source: *; i = inactive; u = inconclusive; x = no result given; & = joins results of further samples.

SMILES	eIF4H FP inh	Rce1 inhib	Env fusion inh	CSC inhib	UUG fidelity	PABP polyA inh	MT1-MMP act inh	MT1-MMP act inh RFP
CC(C)(C)C(=O)NC(=O)Nc1ccccc1C(F)(F)F	-4	i	-7	-11	x	11	-2	1
CC1CCN(S(=O)(=O)c2ccc3c(c2)NC(=O)CS3)CC1	1	i	-8	-13	-7	-2	0	-1
CCN(CC)S(=O)(=O)c1ccc(C(=O)NCCCN=C2NS(=O)(=O)c3ccccc32)cc1	2	i	x	x	-9	2	1	4
C=CCNC(=O)c1c(C(F)(F)F)nn(C)c1Cl	1	i	-12	-12	x	-10	2	5
COc1ccc(NC(=O)c2cc(-c3ccco3)on2)cc1OC	-4	i	3	-5	-14	5	-2	0
COc1ccc2c(c1)-c1c(ssc1=S)C(C)(C)N2C(=O)CSC1=NCCS1	-1	x	10	14	-19	9	-8	-15
Cc1cc2cc(CNC(=S)Nc3ccc(OC(F)F)cc3)ccc2[nH]1	-7	i	10	6	-29	2	1	-4
COc1ccc(NC(=O)O/N=C2/CCCc3ccc(OC)cc32)cc1	-7	i	18	39	11	-8	-7	0
COC(=O)NC1CSCC1OC(=O)c1ccc(Br)cc1 (centres undefined)	1	i	-33	5	-18	2	-2	0
Clc1cc(Br)ccc1OCCOCCN1CCOCC1	-4	i	x	0	-11	3	0	2
Cc1cccc(C)c1NC(=O)c1cccc(N2C(=O)C3CCC(C)CC3C2=O)c1 (centres undefined)	-13	i	-6	-2	-4	-18	17	-3
CC(=O)Nc1cccc(C(=O)Nc2ccc(S(=O)(=O)N3CCCCC3)cc2)c1	x	i	x	-6	1	x	3	-6
CCOc1ccc(NC(=O)NCCCN2CCCC2)cc1	-6	i	x	4	-15	-11	6	6
COc1ccccc1N1CCN(C(=O)c2cc3sccc3n2C)CC1	-2	x	-10	4	-2	-4	0	-3
C[C@H]1CN=C(N(C)C)N1CC1CCCCC1	x	x	-5	-1	-15	x	2	-2
CCc1ccc(N(C(=O)CNC(=O)c2ccco2)C(C(=O)NC2CCCC2)c2cccnc2)cc1 (centres undefined)	-16	i	-4	-11	x	-2	-2	-1
COc1ccccc1N1CCN(CC(=O)c2ccc(F)cc2)CC1	10	i	11	-16	-12	21	-1	3
CN1CCc2c(c3c(n2C)CCN(C)[C@@H]3c2cccnc2)[C@H]1c1cccnc1	-4&-4	i	-3	-6&-8	x	17&8	3	6
NC1=NC(=O)/C(=C\c2cccs2)S1	-10	i	-133	-11	-12	10	-4	-2
O=C(CSc1ncc(C(F)(F)F)cc1Cl)N1CCNC1=O	x	x	-3	-8	-6	x	-3	1
C[C@@H]1CN([C@H](C)CO)C(=O)CCCn2nncc2CO[C@@H]1CN(C)S(=O)(=O)c1ccc(Oc2ccccc2)cc1	x	x	-17	x	-1&19&3	x	-1	-4
O=C(NCc1ccco1)c1cccc(NC(=O)c2ccccc2)c1	-4	i	7	67	-10	9	6	2
CC(C)c1ccc(NC(=O)NCc2ccc3c(c2)OCO3)cc1	-9	i	3	32	-15	3	0	-1
Cc1ccc(CC(=O)O/N=C(\N)Cc2ccc([N+](=O)[O-])cc2)cc1	-2	i	11	9	x	3	-7	-2
O=c1cc(O)n(-c2ccc(Cl)cc2)c(=S)[nH]1	-2	i	x	-5	-8	-3	x	x
CCOc1ccc(-c2nonc2NC(=O)c2ccco2)cc1OCC	2	i	-5	-13	-6	4	-2	-2
CC(=O)Nc1c(C(=O)c2ccccc2)oc2ccccc12	-7	i	15	6	1	2	3	-3
CSCc1c(C(=O)Nc2ccccc2N2CCOCC2)oc2ccccc12	x	x	x	48	-26	x	1	-5
O=C(NC1CC1)C1=C[C@@H](c2ccc(Br)cc2)C[C@@H](OCCCCO)O1	2	i	11	-3	-10	-6	-3	4
C[C@@H]1CCCCO[C@H](CN(C)C(=O)Nc2ccc(F)cc2)[C@@H](C)CN([C@H](C)CO)C(=O)c2cc(N(C)C)ccc2O1	x	x	u	x	7&2	x	0	3
COc1ccc(-c2nnc(NC(=O)Cc3ccccc3)s2)c(OC)c1	2	i	15	3	-31	5	3	0
COc1cc(/C=C/C(=O)N2CCN(c3ccccn3)CC2)cc(OC)c1OC	-3	i	x	-6	0	-8	1	-2
COc1cccc(C(c2nnnn2Cc2ccco2)N2CCN(Cc3ccccc3)CC2)c1OC (centres undefined)	-5	i	-4	12	47	8	-1	2
CC(C)CCN(C(=O)c1cn2ccccc2n1)c1c(N)n(Cc2ccccc2)c(=O)[nH]c1=O	x	x	27	x	-29	x	-3	2
CC(C)Oc1ccc(NC(=O)CCC(=O)O)cc1	-5	i	-67	-3	-14	9	4	4
CCCN1CCN(C(=O)Cn2ncc3c([nH]c4ccc(C)cc43)c2=O)CC1	-8	i	9	-15	-9	-7	2	-1
NC(=O)NC(=O)COC(=O)c1ccccc1Oc1ccccc1	2	i	x	3	-5	3	-3	1
CCn1c(CNC(=O)C2CCCCC2)cc2cc(C)ccc21	-2	i	6	-11	-4	4	4	-4
O=C(CCC(=O)c1ccc(F)cc1)NCc1ccccc1C(F)(F)F	x	i	6	-1	-9	x	2	1
CC(=O)N1CCN(C(=O)c2ccc3c(c2)OCO3)CC1	x	x	u	-2	x	x	2	2
COC(=O)c1ccc(NC(=O)c2cn(-c3ccccc3)nc2-c2ccncc2)cc1	-5	i	x	0	-14	-8	4	-11
Cc1ccc(-c2nc(N)nc(N)n2)c(C)c1	x	x	-2	-10	-11	x	1	0
COc1ccccc1OCCOCCOc1c(C)cc(C)cc1Br	7	i	4	7	x	-10	-3	4
O=C1NC(Cc2ccccc2)c2nc3ccc(Cl)cc3c(=O)n2-c2cc3ccccc3cc21 (centres undefined)	x	x	-76	x	4	x	-8	-8
COc1ccc([C@H]2CC(=O)C=C(c3cc4ccccc4s3)C2)cc1OC	x	x	-15	21	-19	x	2	-8
COc1ccccc1CCC(=O)OCC(=O)NCc1ccc(OC)c(OC)c1	x	x	-21	-8	-2	x	3	4
C=CCn1cc(C(=O)NCCCOC)c(=O)c2cc(S(=O)(=O)N(CC)CC)ccc21	2	i	-177	-12	x	-7	-3	-3
O=C(O)c1cccc(-n2sc3ccccc3c2=O)c1	x	x	-15	19	13	x	1	5
Cc1ccc([C@H]2C[C@@H](O)[C@H](n3cc(COC(=O)c4ccccc4)nn3)CN2Cc2cccs2)cc1	x	x	17	x	-12	x	1	2
Cc1ccc(Cl)c(OCC(=O)NC2CCN(Cc3ccccc3)CC2)c1	x	i	5	-16	x	x	-1	-1
C=CCn1c(=S)[nH]c2ccc(Br)cc2c1=O	-10	x	i	11	-16	-11	-2	0
CC1(c2ccc([N+](=O)[O-])cc2)NC(=O)NC1=O (centres undefined)	0	i	-7	-2	1	0	-8	-1
N#Cc1ccc(OCC(=O)OCC(=O)NCCC2=CCCCC2)cc1	-1	i	-8	-2	x	2	-2	3
CNC(=O)C(=O)NCCN1CCN(S(=O)(=O)c2ccc3ccccc3c2)CC1	8	i	5	-10	-7	18	2	2
Cc1cc(NS(=O)(=O)c2ccc(Nc3nc(-c4ccc(C)c(C)c4)cs3)cc2)no1	1	i	3	2	x	1	6	-1
Cc1cccc(Nc2nc(-c3c(C)nc4ccccn34)cs2)c1	5	i	92*	x	-13	10	-10	-25
COc1cc(C(=O)N2CCN(C(=O)c3cccc4ccccc34)CC2)cc(OC)c1OC	7	i	6	-3	6	-1	-4	-3
COc1ccc(Cl)cc1C(=O)NCC(c1ccco1)N1CCCC1 (centres undefined)	-13	i	5	-6	-6	-5	-6	5
CCC1=NN2C(=N)/C(=C\c3cccn3-c3ccc(C)c(C)c3)C(=O)N=C2S1	11	i	25	45	-21	2	-3	-2
COc1ccc(NC(=S)N2CCN(Cc3ccco3)CC2)c(OC)c1	-13	i	6	11	x	-6	-4	-3

2 entries drawn at random from those above, as already listed:
SMILES	eIF4H FP inh	Rce1 inhib	Env fusion inh	CSC inhib	UUG fidelity	PABP polyA inh	MT1-MMP act inh	MT1-MMP act inh RFP
CC1(c2ccc([N+](=O)[O-])cc2)NC(=O)NC1=O (centres undefined)	0	i	-7	-2	1	0	-8	-1
COc1ccc(NC(=S)N2CCN(Cc3ccco3)CC2)c(OC)c1	-13	i	6	11	x	-6	-4	-3

The list goes on.
SMILES	eIF4H FP inh	Rce1 inhib	Env fusion inh	CSC inhib	UUG fidelity	PABP polyA inh	MT1-MMP act inh	MT1-MMP act inh RFP
COc1cccc(N2CCN(c3nc(C)c(C)c(=O)[nH]3)CC2)c1	-2	i	-7	-3	-2	5	6	1
COc1cc(N=C2C(=O)N3CCCc4cccc2c43)cc(OC)c1	-2	i	15	-28	x	-2	4	5
O=C(O)CC1S/C(=N\N=C/c2ccccc2O)N(c2ccc(O)cc2)C1=O (centres undefined)	-5	i	-36	-9	x	8	0	6
CN1CCN(Cc2nc3c([nH]2)c(=O)[nH]c(=O)n3C)CC1	-14	i	-39	-7	30	0	-9	-2
CC(=O)c1c(C)[nH]c(C(=O)CSc2nnc(-c3ccco3)n2Cc2ccccc2)c1C	-7	i	1	-2	-2	-5	3	-9
COC(=O)C(C#N)c1nc2ccccc2nc1N1CCCC1 (centres undefined)	-6	i	x	x	-13	13	-3	1
CCOC(=O)C1(CC2CCCCO2)CCN(Cc2ccccc2-c2ccco2)CC1 (centres undefined)	2	i	-7	-2	-19	6	-8	2
O=C(Nc1nnc(Cc2ccccc2)s1)C1CCN(C(=O)c2ccco2)CC1	0	i	3	15	2	-6	2	-4
COc1ccc(N(CC(=O)N2CCc3ccccc3C2)S(C)(=O)=O)cc1OC	2	i	-2	-3	-19	26	2	0
CC1(C)Cc2c(sc(NC(=O)COc3cccc4ccccc34)c2C#N)C(C)(C)N1	-42	i	9	14	-4	-59	-7	-3
O=C(N/N=C\c1cccc(Cl)c1)c1n[nH]c2c1CCCC2	-9	x	-80	8	x	7	0	-1
COCCN(CCOC)Cc1cc(=O)oc2cc(OC)ccc12	x	x	13	x	3	x	2	9
O=C(C=Cc1cccs1)c1cccs1	x	x	48	x	-6	x	1	-3
O=C(OCCCN1C(=O)c2ccccc2C1=O)c1ccco1	-2	i	x	-1	-23	-2	4	4
Cn1c(=O)c2c(nc(N3CCc4ccccc4C3)n2C)n(C)c1=O	-10	i	6	-13	-11	-1	x	x
O=c1[nH]c(C2CCN(S(=O)(=O)c3ccccc3)CC2)nc2c1nnn2Cc1cccc(Cl)c1	-2	i	-8	11	x	0	-2	-2
Cc1cccc(C(C)C)c1NC(=O)C1CN(S(=O)(=O)c2ccccc2)CCN1S(=O)(=O)c1ccccc1 (centres undefined)	-1	i	-11	-4	x	8	-1	-4
CCc1ccccc1NC(=O)CN1CCN(C(=O)c2cc(C3CC3)nn2-c2ccccc2)CC1	x	x	-9	x	-2	x	-1	-3
COc1cc(/C=C(\C#N)C(=O)N2CCOCC2)ccc1OCc1ccccc1	-4	i	-2	-2	x	1	-3	-2
O=C(Nc1ccc(S(=O)(=O)N2CCCC2)cc1)C1CCN(S(=O)(=O)c2ccc(F)cc2)CC1	x	i	44	x	-2	x	-9	-12
O=C(O)c1cccc(NC(=S)NC(=O)c2cncc(Br)c2)c1	x	i	-11	1	-24	x	-1	3

High-throughput results as filed in PubChem BioAssay.
